Screening data (PubChem)
nsP2pro primary – CHIKV nsP2 protease inhibition, primary qHTS. Q8JUX6. FRET peptide cleavage, nsP2pro, fluorescence 1 h. Potency, µM (doses to about 24.9 µM), for the others: top-dose activity change, negative = inhibition, actives largely listed as inhibitors. 31,000 compounds, 1.1% hits. AID 1964107; active means well fitted inhibition curve with a large enough effect; inconclusive means small, poorly fitted or top-dose-only effect; inactive means no such curve, though single readings can be large or run the other way; also: nearly all actives have a fitted effect of over 60% in size; a reference inhibitor and vehicle were the controls
* marks the source's active call; other numbers are inactive results; i = inactive; u = inconclusive; & = joins results of further samples; ! = repeats disagree; [ ] = remark or other dose. % is scaled to controls: 0 for no effect and ±100 for the full control effect; potency is read from the fitted curve at half-maximal effect. These rows are one share of the data; the hit share may differ from the screen's.

SMILES	nsP2pro primary
COc1ccc(C2NC(=O)N(C)C3=C2C(=O)N(c2cccc(Cl)c2)C3)cc1 (stereo not drawn)	-14%
CCOC(=O)N1CCc2c(sc3c2c(=O)n(Cc2ccccc2)c(=O)n3CC(=O)Nc2cccc(C)c2)C1	-10%
Cc1cc(C)c2c(=O)cc(C(=O)NCCc3ccc(S(N)(=O)=O)cc3)oc2c1	-20%
Cc1ccc(NS(=O)(=O)c2cccc(C(=O)Nc3nc(-c4ccccc4)cs3)c2)cc1	-26%
CCc1nnc([C@@H]2CC(F)(F)CN2Cc2cccn2C)o1	-16%
CCN1CCCCC12Cc1ccccc1CN(S(=O)(=O)c1ccccc1)C2 (stereo not drawn)	-9%
CCOc1ccc2ccccc2c1C(C(=O)O)N1CCN(CC2CC2)CC1 (stereo not drawn)	-5%
CCn1cc(CN2C[C@@H]3C(=O)N(CCCN4CCCC4=O)C(=O)[C@@H]3C2)cn1	4%
CN1C(=O)Cc2cc(S(=O)(=O)NCc3ccc(Cl)cc3)ccc21	-12%
Cn1nc(C(=O)N2CCOc3ccc(CCC(N)=O)cc3C2)c2ccccc21	2%

SMILES	nsP2pro primary
O=C(C[C@@H]1CCNC[C@@H]1Cc1cc(CC2CCCCC2)on1)NC1CCCCC1	i
O=C(Nc1ccc(-c2ccc(Cl)c(Cl)c2)cc1)C1=C(O)c2ccccc2S(=O)(=O)N1	49%[activator]
CC1=C[C@@H]2[C@H]3[C@@H]4O[C@@](C)(CC[C@H]4O)[C@H]3CC(=O)[C@]23C(=O)N[C@@H](CC(C)C)[C@@H]3[C@@H]1C	u
C1=C2CCCN[C@H]2[C@@H]2C[C@H]1[C@H]1CCCCN1C2	-12%&-7%
CCc1ccc(S(=O)(=O)c2cnc3ccc(OC)cc3c2N2CCCC(C)C2)cc1 (stereo not drawn)	-13%
Oc1cc(-c2cccnc2)cc2cccnc12	i
CC(C)CC(=O)c1c(O)cc2c(c1O)C(CC(C)C)C1=C(O2)C(C)(C)C(=O)C(C)(C)C1=O (stereo not drawn)	58%[activator][10 µM]
Cc1ccc(OCCn2c(CCNC(=O)C3CCN(C(=O)OC(C)(C)C)CC3)nc3ccccc32)cc1	-10%
COc1ccc(NC(=O)C2CCC(CNS(=O)(=O)c3ccc(Br)s3)CC2)c(OC)c1 (stereo not drawn)	-18%
COc1cccc(CN2CCC3(CCC3OC)CC2)c1 (stereo not drawn)	-4%

SMILES	nsP2pro primary
O=C([C@@H]1C[C@H](F)CN1C(=O)NC1CCCCC1)N1CCc2ccccc2C1	-19%
Cc1ccc(-c2cc(C(=O)Nc3ccc(S(C)(=O)=O)cc3)c3ccccc3n2)cc1C	i
CC1CCCCN1CCCNC(=O)c1cc(Sc2ccc(Cl)cc2)nc2ccccc12 (stereo not drawn)	21%
Cc1cc(C)nc(NC(=S)N2CCN(c3ccc4occc4c3)CC2)c1	-5%
COc1ccccc1N1CCN(CCC(=O)Nc2cccc(F)c2)CC1	-19%
O=C(NCCc1ccccc1)c1cc(Sc2cccc(Cl)c2)nc2ccccc12	-15%
CC(C)c1cc(CN2CCC(N3CCC(C(=O)NCc4ccccn4)CC3)CC2)[nH]n1	i
CC(C)OCCCNC(=O)c1cn(C)c2ccc(S(=O)(=O)N(C)C3CCCCC3)cc2c1=O	-16%
Cc1c(N2C(=O)[C@@H]3[C@H](O)CCN3C2=O)ccc(C#N)c1Cl	-9%
Cc1cc(C)c(CNC(=O)c2cc(-c3cnn(C)c3C)cc3c2OCCN3C)c(=O)[nH]1	-5%[39.2 µM]

4 entries from above, field by field:
Cc1ccc(-c2cc(C(=O)Nc3ccc(S(C)(=O)=O)cc3)c3ccccc3n2)cc1C
- nsP2pro primary = i
CC1CCCCN1CCCNC(=O)c1cc(Sc2ccc(Cl)cc2)nc2ccccc12 (stereo not drawn)
- nsP2pro primary = 21%
O=C(NCCc1ccccc1)c1cc(Sc2cccc(Cl)c2)nc2ccccc12
- nsP2pro primary = -15%
CC(C)c1cc(CN2CCC(N3CCC(C(=O)NCc4ccccn4)CC3)CC2)[nH]n1
- nsP2pro primary = i

More entries:
SMILES	nsP2pro primary
COc1ccc2c(c1)c1c(c(=O)n(-c3ccc(OC)c(OC)c3)c(=O)n1CC(=O)N1CCCC1)n2C	-19%
CCCn1ccnc1CN1CCCC12CCN(c1ccc(C(F)(F)F)cn1)CC2	4%
CC(=O)Nc1ccc(CN2CCC[C@H]2c2nc(-c3ccc(N4CCC(C(N)=O)CC4)nc3)no2)cc1	-1%
C=CCN(C)C(=O)[C@@H](C)C1CC[C@@]2(C)Cc3sc(-c4cccnc4)nc3[C@@H](C)[C@@H]2[C@H]1O (stereo partly drawn)	u
COc1ccc(CCNc2nc(SCc3ccccc3F)nc3ccccc23)cc1OC	-12%
Cc1ccc2nc(NC3=NC4(CCCC4)C4=C(CCCC4=O)N3)oc2c1	i
CCOC(=O)c1ccc(-c2ccc3ncnc(NCc4ccc(C)o4)c3c2)o1	-3%
COc1ccccc1C1=Nn2c(nnc2-c2ccccc2OC)SC1	i
COc1ccc(C(=O)N2CC[C@H]3NC(=O)N(c4ccc(Oc5ccccc5)cc4)C(=O)[C@H]32)cc1	-12%
COc1cccc(CNC(=O)c2cn3cc(-c4cccc(OC)c4)sc3n2)c1	i

SMILES	nsP2pro primary
CCOc1cc2ncc(C#N)c(Nc3ccc(F)c(Cl)c3)c2cc1NC(=O)/C=C/CN(C)C	48%&133%[activator]
Cc1ccccc1-c1noc(-c2ccc(N3CCN(c4ccccc4)CC3)c([N+](=O)[O-])c2)n1	-21%
Cc1cc(N2CCC3(CCCN(C)C3=O)C2)c2ccccc2n1 (stereo not drawn)	5%
Cc1ccc(-c2nnc([C@H]3CCN(C(=O)COc4ccccc4)C3)o2)cc1	u
O=C(CCC1CCCC1)N1CC(N(Cc2ccccn2)C(=O)Nc2ccccc2)C1	i
Cc1nn2c(c1-c1ccnn1C(C)C)N(C(=O)COc1ccccc1C(N)=O)CCC2	2%[39.2 µM]
Cc1cccc(CNc2ncnc3ccc(-c4cccc(Cl)c4)cc23)c1	i
COCCNc1nc(C)nc2c1nc(-c1ccccc1)n2C1CCN(Cc2ccccc2)C1 (stereo not drawn)	1%
Cc1c(C(=O)OC2CCC(C)CC2)[nH]c2c1C(=O)CC(c1ccc(N(C)C)cc1)C2 (stereo not drawn)	-20%
CCOc1ccccc1NC(=O)CCNS(=O)(=O)c1cccc2nonc12	-16%

Arranged by count of non-hydrogen atoms (high to low): three of the compounds above.
SMILES	nsP2pro primary
COCCNc1nc(C)nc2c1nc(-c1ccccc1)n2C1CCN(Cc2ccccc2)C1 (stereo not drawn)	1%
Cc1c(C(=O)OC2CCC(C)CC2)[nH]c2c1C(=O)CC(c1ccc(N(C)C)cc1)C2 (stereo not drawn)	-20%
Cc1ccc(-c2nnc([C@H]3CCN(C(=O)COc4ccccc4)C3)o2)cc1	u

Going on with the list:
SMILES	nsP2pro primary
O=C(/C=C/c1ccccc1)NC(NC(=S)Nc1ccc(Cl)cc1)C(Cl)(Cl)Cl (stereo not drawn)	-1%
C[C@@]1(O)CCN(Cc2ccc(Br)o2)C[C@H]1N1CCCC1	-13%
COc1ccc(C(=O)N2CCCC2)c(OC2CCN(C(=O)C3C=CCN3)CC2)c1 (stereo not drawn)	1%
CC(COc1ccc(Oc2ccccc2)cc1)Oc1ccccn1 (stereo not drawn)	5%
CCCCCCCCCC(=O)OCCN1CCN(CC/C=C2\c3ccccc3Sc3ccc(C(F)(F)F)cc32)CC1	-7%
Cc1cccc(CNC(=O)CN2CC(C)Sc3ccccc32)c1 (stereo not drawn)	-12%
CCCCNc1nc(C)nc2c1nc(-c1ccccc1)n2CCN(C)C	-3%
COc1cccc(CNC(=O)Cn2c(=O)n3nc(-c4cccc(C)c4)nc3c3ccccc32)c1	-18%
O=C(Nc1ccc(-c2cccnc2)nc1)c1cccs1	0%
CCSC1=NC2(CCN(C(=O)NC3CCCCC3)CC2)N=C1c1ccc(C)c(C)c1	-10%

SMILES	nsP2pro primary
CNC(=O)O[C@H]1COc2ccc(N3CCN(C4COC4)CC3)cc2[C@@H]1NC(=O)c1ccc(F)cc1	-18%
CC(=O)N1CCN(c2ccc(OC[C@H]3CO[C@](Cn4ccnc4)(c4ccc(Cl)cc4Cl)O3)cc2)CC1	34%&100%[activator]
Cc1ccc(NS(=O)(=O)c2ccc(-c3ccccc3)cc2)cc1C	4%
CC(=O)OC1CC(O)(C(C)C)C2C(OC(=O)c3ccc(O)cc3)C=C(C)C(=O)CC12C (stereo not drawn)	-1%[10 µM]
Cc1cc2c(cc1NS(=O)(=O)c1ccc(F)cc1)n(C)c(=O)c(=O)n2C	-18%
Cc1ccc(-n2cnc3cc(C(=O)NCc4ccc(F)cc4)ccc32)c(C)c1	11%
Cc1ccc(NC(=O)COc2ccc3oc4c(c3c2)CCCC4)cc1C	-26%
CCc1nn(CC(=O)N(C)Cc2ccccc2)c(=O)c2cc3sccc3n12	-34%
Cn1nc2n(c1=O)CCN(C1CCSCC1)CC2	-1%
CC(=O)Nc1c(I)c(C(=O)N[C@H]2C(O)O[C@H](CO)[C@@H](O)[C@@H]2O)c(I)c(N(C)C(C)=O)c1I (stereo partly drawn)	1%

SMILES	nsP2pro primary
CC(=O)c1ccc(NC(=O)c2cccc(NC(=O)N3CCSc4ncccc43)c2)cc1	-27%
FC(F)(F)c1nnc2c(Sc3ccccc3)nc3ccc(Cl)cc3n12	-13%
Nc1c(C(=O)NCc2ccc(Cl)cc2)sc2nc(-c3ccc(F)cc3)ccc12	29%
CCOc1ccc(-c2cc3c(=O)n(CC(=O)NCc4ccc(F)cc4)ccn3n2)cc1	-14%
C=C1C2(C)CC3C4(C)OC(C5OC56C4=CC(=O)OC6(C)C)C3(C)C13C(=O)OC(C)C3(O)C2=O (stereo not drawn)	-27%[10 µM]
CN1CCSc2ccc(C(=O)NCc3ccccc3F)cc21	-12%
N#Cc1ccc(CN2CCC(N3CCCOC3=O)CC2)cc1	1%
CCC(=O)Nc1ccc(CC)cc1-c1nc2ccccc2n(CC(=O)c2ccc(OC)cc2)c1=O	-20%
COc1ccc(-c2ccc3nc(-c4cc(F)ccc4F)oc3c2)c(OC)c1OC	5%
Cc1cc(C)c2c(n1)nn1c(C)c(CCC(=O)NCc3ccc(Cl)cc3)c(C)nc21	-3%

SMILES	nsP2pro primary
COCC1CN(Cc2ccc(Br)s2)CC12CCNCC2 (stereo not drawn)	u
COc1cccc(CCN(Cc2cccc(C)c2)C(=O)[C@H]2CCC[C@H](O)C2)c1	0%
COc1ccc(CNC(=O)Cc2coc3ccc(C)cc23)cc1	-13%
CCCn1c(-c2ccc(F)cc2)nc2c(NC(C)CCCN(CC)CC)nc(C)nc21 (stereo not drawn)	3%
CC1=C2C(=O)C=C(CO[C@@H]3O[C@H](CO)[C@@H](O)[C@H](O)[C@H]3O)[C@@H]2[C@H]2OC(=O)[C@H](C)[C@@H]2[C@@H](O)C1	-11%[10 µM]
O=C(Nc1ccc(S(=O)(=O)Nc2nc(-c3ccccc3)cs2)cc1)c1ccc2ccccc2c1	u
Cc1ccc(NC(=O)Cn2cnc3sc(C(=O)O)c(C)c3c2=O)cc1Cl	-14%
Cc1nc2cc(-c3cccc(F)c3)nn2c(C)c1CCC(=O)N1CCN(c2ccc(F)cc2)CC1	-6%
NC1(c2ccc(NC(=O)c3ccnc(-c4cc(C(=O)O)ccn4)c3)cc2)CC1	96%[activator]
COc1ccc(N(CC(=O)NCCc2cccc(C)c2)S(=O)(=O)c2c(C)noc2C)cc1	-15%

SMILES	nsP2pro primary
COc1cccc(CCNc2ncnc3c2nnn3C)c1	-13%
CC(C)CC(=O)N[C@H](C(=O)N[C@H](C(=O)N[C@@H](CC(C)C)[C@@H](O)CC(=O)N[C@@H](C)C(=O)N[C@@H](CC(C)C)[C@@H](O)CC(=O)O)C(C)C)C(C)C	u
CC(C)Nc1cc(N2CCN(C3CCCCC3)CC2)c2noc3c2c1C(=O)c1ccccc1-3	5%
COc1ccccc1Cc1nc2ccccc2nc1SCC(=O)N1CCc2ccccc21	-24%
Cc1ccc(-c2ccc(=O)n(CC(=O)N(C)C(C)c3ccco3)c2)cc1 (stereo not drawn)	i
O=C(O[C@@H]1Cc2c(O)cc(O)cc2O[C@@H]1c1cc(O)c(O)c(O)c1)c1cc(O)c(O)c(O)c1	4.4µM*!
CC1CCCN(c2csc3ccccc3c2=O)C1 (stereo not drawn)	-10%
Cn1cc(CCNC(=O)c2ccc3oc(-c4cccc(F)c4)nc3c2)cn1	i
Cc1ccc(N(C)S(=O)(=O)c2ccc(-c3cnc(C4CC4)o3)cc2)cc1	-7%
CC(C)C1(O)NC(=O)C(CC2(O)c3ccccc3N3C(=O)C(C)(C)NC32)n2c1nc1ccccc1c2=O (stereo not drawn)	-22%[10 µM]

SMILES	nsP2pro primary
COc1ccc(OC)c(NC(=O)Cn2c(=O)cc(-c3ccccc3)c3c(C)nn(C)c32)c1	-19%
COCc1nc(C2CC(N)C2)cc(N(C)Cc2noc3c2CCCC3)n1 (stereo not drawn)	i
O=C1CO[C@H]2CN(Cc3ncc[nH]3)C[C@H]2N1Cc1ccc(F)cc1	i
COc1ccc(NC(=O)c2cccc(N3CCCS3(=O)=O)c2)c(OC)c1	-17%
Cc1ccc(S(=O)(=O)Nc2cccc3cccnc23)cc1	i
COc1ccc(NC(=O)c2nc3sccn3c2-c2cccc(OC)c2)cc1	i
Cn1cnc(S(=O)(=O)N2c3ccccc3CC2c2noc(C3CCOCC3)n2)c1 (stereo not drawn)	-5%
CC(C=CC1=C(C)CCCC1(C)C)=CC=CC(C)=CC(=O)Oc1c(C)c(C)c2c(c1C)CC[C@@](C)(CCC[C@H](C)CCC[C@H](C)CCCC(C)C)O2	0%[2.68 µM]
Cc1ccc(CN2CCC(C(=O)N3CCCCCCNC(=O)CC3)CC2)s1	-2%
CCn1nc(C)cc1C(=O)N1CCOC[C@H](Oc2cccnc2)C1	i
COc1ccccc1C(=O)Nc1nc(-c2ccccc2)ns1	-25%
